Screens deposited in PubChem BioAssay by Center for Chemical Genomics, University of Michigan.
CDC25B-CDK2 inh: human CDC25B-CDK2/CyclinA binding inhibition. AID 1259370. z-score (concentration not given with the values). HTRF CDC25B-CDK2/CyclinA binding, anti-His/anti-Flag; stronger effect = higher value. 94,000 compounds, 0.72% hits;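 note: score is relative to mean and SD of negative controls; strong numbers were not always called active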
TAR Tat displ: HIV-1 TAR-Tat binding disruption. HIV-1 TAR RNA, Tat peptide displacement FRET; stronger effect = higher value. 100,000 compounds, 0.6% hits. z-score (concentration not given with the values);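 note: score is relative to mean and SD of negative controls; some compounds called inactive have numbers as strong as hits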
* marks the source's active call; other numbers are inactive results.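 Rule for the calls: active = z-score from 3 up in half or more of its runs; inactive = the rest.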

`Cc1noc(NC(=O)c2c(-c3c(Cl)cccc3Cl)noc2C)c1[N+](=O)[O-]` gave CDC25B-CDK2 inh 0.46.
For O=C(Cn1c(=O)sc2ccccc21)N1CCN(c2ccccc2F)CC1 the results were CDC25B-CDK2 inh -0.34.
Screening O=C(NCc1ccco1)C1CCC(Cn2c(=O)c3sccc3n(CC(=O)N3CCCC3)c2=O)CC1 (configuration not stated) returned TAR Tat displ 2.
`CCN(CC)CCCNC(=O)C(C)n1nc(C)n2c(cc3occc32)c1=O` (configuration not stated) gave CDC25B-CDK2 inh -0.4 and TAR Tat displ 3.05.
CCCCNC(=O)c1sc2ncn(CC(=O)N3CC(C)CC(C)C3)c(=O)c2c1C (configuration not stated) was read as CDC25B-CDK2 inh 0.83.
`CSc1ccc(CN2CCN(Cc3ccncc3)CC2)cc1` gave CDC25B-CDK2 inh -0.72 and TAR Tat displ -0.5.
COc1ccc(OC)c(C2=NS(=O)(=O)N(C)C(C(=O)NCc3cccs3)=C2)c1 was read as CDC25B-CDK2 inh -1.08 and TAR Tat displ 1.76.
Screening O=C(NCCCc1nc2ccccc2[nH]1)c1ccco1 returned CDC25B-CDK2 inh -1.77 and TAR Tat displ -0.08.
`Cc1ccc(-c2n[nH]c(=O)c(Cc3ccc4c(c3)OCO4)n2)cc1` gave TAR Tat displ 0.63.
Screening Cc1cccn2c(=O)c(C(=O)NCCc3ccco3)cnc12 returned TAR Tat displ 1.18.
For CC(C)(Oc1ccc(Cl)cc1)C(=O)NCc1ccc2c(c1)CCO2 the results were CDC25B-CDK2 inh -0.46.
O=C(CCc1nnc2ccc(NCc3ccco3)nn12)N1CCN(c2ccc(F)cc2)CC1 was read as TAR Tat displ 1.55.
`CC1CC(=O)Nc2cc(S(=O)(=O)NCCN3CCc4ccccc4C3)ccc2S1` (configuration not stated) gave TAR Tat displ 1.33.
Screening CC1CCN(C(=O)CCc2nc3sc4c(c3c(=O)[nH]2)CCCC4)CC1 returned TAR Tat displ 0.18.
`O=C(CCc1nnc2c(=O)n(-c3cccc(F)c3)ccn12)N1CCN(c2ccccc2F)CC1` gave TAR Tat displ -0.03.
`CCN(CC)S(=O)(=O)c1ccc2oc(C(=O)NCC3COc4ccccc4O3)c(C)c2c1` (configuration not stated) gave CDC25B-CDK2 inh 0.24.
Screening CCOC(=O)Cn1cnc2cn(-c3ccccc3)nc2c1=O returned CDC25B-CDK2 inh -0.73 and TAR Tat displ 0.07.
`Cc1[nH]c2ccc(Br)cc2c(=O)c1CN1CCCCC1C` (configuration not stated) gave CDC25B-CDK2 inh -0.96 and TAR Tat displ 1.36.
Screening COCc1cc(CN2CCN(c3ccccc3)CC2)c(O)c2ncccc12 returned CDC25B-CDK2 inh -4.2 and TAR Tat displ 1.25.
Cc1cc(=O)[nH]c(SCc2cc(=O)n3c(-c4ccccc4)csc3n2)n1 was read as CDC25B-CDK2 inh 0.35 and TAR Tat displ -0.5.
For O=C(c1noc2c1CCc1ccccc1-2)N1CCc2ccccc2C1 the results were CDC25B-CDK2 inh -0.27.
For COc1ccc(CNc2nc(NCCN3CCOCC3)nc3c2cnn3C)cc1 the results were TAR Tat displ 1.26.
For CN(C)C1=C(C(=O)N2CCOCC2)S(=O)(=O)c2ccccc21 the results were TAR Tat displ 1.7.
For COc1ccc(C2C(C#N)=C(N)Oc3n[nH]c(-c4ccccc4)c32)c(OC)c1 (configuration not stated) the results were CDC25B-CDK2 inh -2.28 and TAR Tat displ 1.17.
For COc1ccc(C2C3=C(CC(C)(C)CC3=O)Nc3nc(SCC(=O)c4ccccc4)nn32)cc1 (configuration not stated) the results were CDC25B-CDK2 inh -0.14 and TAR Tat displ -1.99.
`Cc1cc(F)ccc1NS(=O)(=O)c1ccc(-c2n[nH]c(C)c2C)s1` gave TAR Tat displ -0.65.
For COc1ccc(Cn2nnc3c(C)nn4c(-c5ccc(OC)cc5)nnc4c32)cc1 the results were CDC25B-CDK2 inh -0.68 and TAR Tat displ -0.32.
Screening COc1ccccc1-c1noc(-c2ccc[nH]c2=O)n1 returned CDC25B-CDK2 inh 0.23 and TAR Tat displ 0.53.
Screening CC(C)=CCC[C@](C)(O)[C@H]1CC[C@]2(C)[C@@H]1CC[C@@H]1[C@@]3(C)CCC(=O)C(C)(C)[C@@H]3CC[C@]12C returned TAR Tat displ 1.88.
Screening COc1cc2c(cc1OC)C(NNC1=NC(C)(C)Cc3ccccc31)=NC(C)(C)C2 returned CDC25B-CDK2 inh -3.92.
Screening CCOc1cc(C2c3c(-c4cc(C)ccc4O)n[nH]c3C(=O)N2CCO)ccc1O (configuration not stated) returned CDC25B-CDK2 inh -1.85 and TAR Tat displ -0.17.
Screening CCOC(=O)N1CCC(NC(=O)c2cc(S(=O)(=O)N3CCOCC3)cn2C)CC1 returned TAR Tat displ 1.91.
For Cn1c2ccccc2c2cnn(CC(=O)N3CCN(C4CCCCC4)CC3)c(=O)c21 the results were CDC25B-CDK2 inh 0.68 and TAR Tat displ 0.75.
For CCOc1ccccc1NC(=O)CSc1nn2c(=O)c(C)nnc2s1 the results were TAR Tat displ 2.1.
For O=C(NCc1ccccc1)N1CCn2cccc2C1Cc1ccccc1 (configuration not stated) the results were TAR Tat displ -1.54.
For CC(=O)N1c2ccccc2CC1C(=O)N1CCN(c2ncccn2)CC1 (configuration not stated) the results were TAR Tat displ 0.8.
Screening CC1CCCCN1CCCNC(=O)C1CCN(c2nn3c(=O)c4c(nc3s2)CCCC4)CC1 (configuration not stated) returned TAR Tat displ 1.72.
COc1cccc(OCCn2cc(C(=O)c3cccs3)c3ccccc32)c1 was read as CDC25B-CDK2 inh -0.28 and TAR Tat displ -0.27.
For COC(=O)c1cnn(-c2ccccc2)c1N the results were CDC25B-CDK2 inh -1.37 and TAR Tat displ -0.44.
Screening COc1ccc(Oc2coc3cc(OC(=O)c4ccccc4OC)ccc3c2=O)cc1 returned CDC25B-CDK2 inh -0.18 and TAR Tat displ -1.29.
`Cc1nc2sc3c(N4CCCCC4)ncnc3c2c2c1COC(C)(C)C2` gave CDC25B-CDK2 inh -0.5 and TAR Tat displ 1.11.
O=[N+]([O-])c1cc(C(F)(F)F)ccc1N=Nc1c(O)[nH]c2ccc(F)cc12 was read as CDC25B-CDK2 inh -1.06.
Cc1ccn2c(Nc3ccccc3C)c(-c3ccncc3)nc2c1 was read as CDC25B-CDK2 inh -2.23.
For COc1cc2c(cc1OC)C(c1ccccc1)NC(C)(C)C2 (configuration not stated) the results were CDC25B-CDK2 inh -2.95.
c1ccc2c(c1)nc(N1CCN(C3CCCCC3)CC1)c1nncn12 was read as CDC25B-CDK2 inh 0.58 and TAR Tat displ 0.23.
CCOc1ccccc1NC(=S)NCCO was read as CDC25B-CDK2 inh -1.79.
For CCCCNC(=O)Nc1ccn(C)n1 the results were CDC25B-CDK2 inh 6.64.
COc1cccc(N2C(=O)CC(N3CCN(c4ccccc4)CC3)C2=O)c1 (configuration not stated) was read as CDC25B-CDK2 inh 1.1 and TAR Tat displ -0.59.
Screening O=C(CSc1nnc(-c2ccncc2)o1)N1c2ccccc2Sc2ccccc21 returned CDC25B-CDK2 inh -1.7.
COc1cccc(C2CC(c3ccc(C)cc3)Nc3nc(N)nn32)c1 (configuration not stated) was read as CDC25B-CDK2 inh -0.63 and TAR Tat displ 2.88.
Cc1cc(C)c(-c2c(NCCCOC(C)C)c(=O)c2=O)cc1C was read as TAR Tat displ 1.42.
For CNC(=S)N(C)NC(=S)Nc1ccc(OC)c(OC)c1 the results were CDC25B-CDK2 inh -1.92.
Cc1noc2ncnc(N3CCC(C(=O)N4CCOCC4)CC3)c12 was read as TAR Tat displ 1.59.
`CCCCOC(=O)COc1ccc2c3c(c(=O)oc2c1)CCC3` gave CDC25B-CDK2 inh -0.71.
O=C(CC1(O)C(=O)N(Cc2ccc(Cl)cc2)c2ccccc21)c1ccc(F)cc1 (configuration not stated) was read as CDC25B-CDK2 inh -1.34.
Screening COc1ccc(C2=NN(C(=O)CSc3ncnc4ccccc34)C(c3ccc(OC)cc3)C2)cc1 (configuration not stated) returned CDC25B-CDK2 inh -1.6 and TAR Tat displ 1.99.
For CCCN(CCC)S(=O)(=O)c1ccc(C(=O)NN)cc1 the results were CDC25B-CDK2 inh -0.79.
CCCCC(=O)N(c1ccc(Br)cc1)C1C=CS(=O)(=O)C1 (configuration not stated) was read as CDC25B-CDK2 inh -2.44 and TAR Tat displ -1.25.
`CCCC(NS(=O)(=O)c1ccc(CN2C(=O)c3cccnc3C2=O)s1)c1cccs1` (configuration not stated) gave TAR Tat displ 2.4.
For CC(=O)Oc1cn(C(C)=O)c2ccc(Br)cc12 the results were CDC25B-CDK2 inh 0.49 and TAR Tat displ 2.69.
Screening CCN(Cc1ccccc1)S(=O)(=O)c1cn(C)cn1 returned TAR Tat displ 2.09.
For c1ccc(-n2nnnc2SCCCNCc2ccc3c(c2)OCO3)cc1 the results were CDC25B-CDK2 inh -1.87 and TAR Tat displ 1.37.
`COc1ccc(Oc2cc(C#N)c(C#N)cc2Oc2ccc(OC)cc2)cc1` gave CDC25B-CDK2 inh -1.71.
`Cc1ccc(C)c(S(=O)(=O)c2cn(C)c3cc(N4CCN(C)CC4)c(F)cc3c2=O)c1` gave TAR Tat displ -0.51.
For Clc1cccc(CNCc2ccc3c(c2)OCO3)c1 the results were CDC25B-CDK2 inh 0.02 and TAR Tat displ 2.59.
Screening CCOC1OC(=O)C(Cl)=C1N1CCOCC1 (configuration not stated) returned CDC25B-CDK2 inh 1.3.
Screening CCN1CCC2(CC1)OC(=O)C(C)=C2C(=O)NCCC1=CCCCC1 returned TAR Tat displ 1.07.
Screening CC1=CC(C)(C)Nc2ccc(OC(=O)COc3ccccc3Cl)cc21 returned CDC25B-CDK2 inh 0.88 and TAR Tat displ -4.68.
For CCOc1ccc(S(=O)(=O)n2cnc(C)c2)cc1C the results were CDC25B-CDK2 inh -0.78 and TAR Tat displ 0.
Screening Cc1nn(-c2ccccc2)c2c1c(C)c(CCC(=O)O)c(=O)n2C returned CDC25B-CDK2 inh -1.42 and TAR Tat displ 0.
Screening CCCCCOC(=O)C1=C(C)Nc2nnnn2C1c1cc(Br)ccc1F (configuration not stated) returned CDC25B-CDK2 inh 0.22 and TAR Tat displ 1.3.
Screening Cc1nn(-c2nc3ccc(Br)cc3s2)c2c1C(c1ccc(F)cc1F)CC(=O)N2 (configuration not stated) returned TAR Tat displ 1.73.
For C=CCn1c(C2CC(=O)N(c3ccc(C)c(C)c3)C2)nc2ccccc21 (configuration not stated) the results were CDC25B-CDK2 inh -1.43 and TAR Tat displ 0.4.
Screening CCc1ccc(C2C(C(=O)OC)C(=O)CC(C)(O)C2C(=O)OC)cc1 (configuration not stated) returned CDC25B-CDK2 inh 0.94 and TAR Tat displ 2.39.
`Cn1c(=O)c2c(SCC(=O)Nc3ccccc3F)nc(-c3ccco3)nc2n(C)c1=O` gave CDC25B-CDK2 inh -1.42.
`COc1ccc(NC(=O)CC2(CC3=NS(=O)(=O)c4ccccc4N3)CCCC2)cc1` gave TAR Tat displ 1.45.
Screening Cn1cc2c(n1)c(=O)n(Cc1ccc(F)cc1)c(=O)n2CC(N)=O returned TAR Tat displ 1.02.
For CCC(C)NC(=O)c1nn2c(C(F)(F)F)cc(-c3cccs3)nc2c1Cl (configuration not stated) the results were CDC25B-CDK2 inh 1.42 and TAR Tat displ 1.08.
O=C(C1CC1)N1CCc2cc(Br)cc(S(=O)(=O)Nc3ccc(C(F)(F)F)cc3)c21 was read as CDC25B-CDK2 inh 0.26.
For Cn1nc(-c2ccc(Sc3ccc(Cl)cc3)s2)cc1C(F)(F)F the results were CDC25B-CDK2 inh -1.34.
Screening CC1CN(C(=O)C2CCN(S(=O)(=O)c3cccnc3)CC2)c2ccccc2S1 (configuration not stated) returned TAR Tat displ 1.12.
`C#CCN1C(=O)C(=O)c2cc(C)ccc21` gave CDC25B-CDK2 inh -1.63 and TAR Tat displ 1.71.
Screening O=C1CC(c2ccccc2)=NO1 returned CDC25B-CDK2 inh -1.58.
`COc1nc(N)nc(SC)n1` gave CDC25B-CDK2 inh -1.76.
Screening Cc1ccc(-c2csc3c(=O)[nH]cnc23)cc1 returned CDC25B-CDK2 inh 0.16 and TAR Tat displ -0.37.
For COC(=O)c1cc2occc2n1Cc1nc(-c2ccccc2)oc1C the results were CDC25B-CDK2 inh -0.65 and TAR Tat displ 1.59.

Structures from the list above with a thiophene ring, fused or not:
Screening O=C(NCc1ccco1)C1CCC(Cn2c(=O)c3sccc3n(CC(=O)N3CCCC3)c2=O)CC1 (configuration not stated) returned TAR Tat displ 2.
CCCCNC(=O)c1sc2ncn(CC(=O)N3CC(C)CC(C)C3)c(=O)c2c1C (configuration not stated) was read as CDC25B-CDK2 inh 0.83.
COc1ccc(OC)c(C2=NS(=O)(=O)N(C)C(C(=O)NCc3cccs3)=C2)c1 was read as CDC25B-CDK2 inh -1.08 and TAR Tat displ 1.76.
Screening CC1CCN(C(=O)CCc2nc3sc4c(c3c(=O)[nH]2)CCCC4)CC1 returned TAR Tat displ 0.18.
`Cc1cc(F)ccc1NS(=O)(=O)c1ccc(-c2n[nH]c(C)c2C)s1` gave TAR Tat displ -0.65.
COc1cccc(OCCn2cc(C(=O)c3cccs3)c3ccccc32)c1 was read as CDC25B-CDK2 inh -0.28 and TAR Tat displ -0.27.
`Cc1nc2sc3c(N4CCCCC4)ncnc3c2c2c1COC(C)(C)C2` gave CDC25B-CDK2 inh -0.5 and TAR Tat displ 1.11.
`CCCC(NS(=O)(=O)c1ccc(CN2C(=O)c3cccnc3C2=O)s1)c1cccs1` (configuration not stated) gave TAR Tat displ 2.4.
For CCC(C)NC(=O)c1nn2c(C(F)(F)F)cc(-c3cccs3)nc2c1Cl (configuration not stated) the results were CDC25B-CDK2 inh 1.42 and TAR Tat displ 1.08.
For Cn1nc(-c2ccc(Sc3ccc(Cl)cc3)s2)cc1C(F)(F)F the results were CDC25B-CDK2 inh -1.34.
Screening Cc1ccc(-c2csc3c(=O)[nH]cnc23)cc1 returned CDC25B-CDK2 inh 0.16 and TAR Tat displ -0.37.
